Screening data (PubChem)
VACV E9 pol inh: vaccinia E9 polymerase processive synthesis inhibition | in vitro processive DNA synthesis, absorbance read-out; stronger effect = lower value; some inactives read as strong as hits | normalized absorbance, % (test concentration not listed) | actives 0.94% (n = 46,000);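 active = replicate mean up to 90% and picked by the depositor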;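 note: 100% = median of the test wells of a plate; 100 nL library stock went into each well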
Active calls of the source: *. Not all compounds are listed, so the mix of outcomes need not match the whole.

SMILES	VACV E9 pol inh
COC(=O)c1sccc1NS(=O)(=O)c1ccc(F)cc1F	95.9
Cc1cccc(C)c1NC(=O)C1(N(Cc2ccco2)C(=O)Cc2nc(N)n[nH]2)CCCCC1	102.0
CCOC(=O)c1cnc2ccc(Cl)cc2c1Nc1ccc(S(=O)(=O)Nc2ncccn2)cc1	100.1
COc1cccc(C2(c3ccc(O)cc3)CCCC2)c1	99.0
Cc1ccc2ncc(-c3ccc4c(N)c(C)ccc4n3)cc2c1	94.0
NC(=S)NN1C2CSC1CS2	100.8
O=C(/C=C/c1ccc(-c2cccs2)s1)Oc1ccc(Cl)cc1	99.2
CCOC(=O)/C=C/c1ccc(-c2ccc(F)cc2)o1	97.0
N/C(CC(=O)Nc1cccc(C(F)(F)F)c1)=N/O	99.6
CNC1C2CN3CCC(O2)C13 (stereo not given)	99.4
CN(Cc1ccccc1)S(=O)(=O)c1ccc(CN2C(=O)c3cccnc3C2=O)cc1	103.1
CCc1c(C)nc2cc(-c3ccc(Cl)cc3)[nH]n2c1=O	108.9
O=C(NCCc1nc2ccccc2[nH]1)c1cccs1	100.5
CCc1c(C)nc2nc[nH]n2c1=O	100.4
O=C(/C=C/c1cccs1)N1CCCCCC1	101.2

Quoted from the listing.
VACV E9 pol inh, CCc1c(C)nc2nc[nH]n2c1=O is entered as 100.4
VACV E9 pol inh, NC(=S)NN1C2CSC1CS2 is entered as 100.8
VACV E9 pol inh, O=C(/C=C/c1ccc(-c2cccs2)s1)Oc1ccc(Cl)cc1 is entered as 99.2
VACV E9 pol inh, CCc1c(C)nc2cc(-c3ccc(Cl)cc3)[nH]n2c1=O is entered as 108.9
VACV E9 pol inh, COc1cccc(C2(c3ccc(O)cc3)CCCC2)c1 is entered as 99.0
VACV E9 pol inh, Cc1ccc2ncc(-c3ccc4c(N)c(C)ccc4n3)cc2c1 is entered as 94.0

Later entries.
SMILES	VACV E9 pol inh
Cc1c(C(=O)NCCN2CCOCC2)sc2nc(-c3ccccc3)cn12	100.4
Cc1ccc(NC(=O)Cn2cccc2)cc1	99.8
CN1CCN(Cc2cc(C(C)(C)C)c(O)c(C(C)(C)C)c2)CC1	100.1
Cc1ccc(NC(=O)CC(c2ccccc2)c2ccccc2)cc1C	98.6
Cc1ccc(S(=O)(=O)CCC(=O)O)cc1	105.1
CCOc1ccccc1C(=O)Nc1ccc(-n2nncc2C(C)(C)C)cc1	100.1
O=C(OCc1ccc(F)cc1)c1ccccc1F	101.6
CCN1C(=O)S/C(=C\c2cccc(Cl)c2)C1=O	90.5
FC(F)(F)c1ccc(-c2noc(-c3ccc(Cl)nc3)n2)cc1	101.6
O=c1cc(-c2ccccc2)n(-c2ccccc2)cn1	84.5
Cc1ccc2oc(C(=O)N(Cc3ccccc3)C3CCS(=O)(=O)C3)c(C)c2c1 (stereo not given)	80.2
O=C(Nc1ccc(Br)cc1)c1cc(=O)c2ccccc2o1	98.5
CCOC(=O)Nc1nc2ccc(OC)cc2s1	100.3
CCN(CC)C(=O)c1sc2nc(-c3cccs3)cc(C(F)(F)F)c2c1N	96.4
CCCCn1c(=O)c2ccccc2c2ccccc2c1=O	79.6
Cc1ccc(OCC(=O)Nc2sc3c(c2C(N)=O)CCCC3)cc1	100.3
CCc1cc(OC(=O)N(C)C)nc(-c2ccc(F)c(Cl)c2)n1	104.9
CCC(=O)Oc1ccc(N2C(=O)CCC2=O)cc1	99.8
COC(=O)CSc1cc(C)nc(N)n1	101.8
COCc1nnc(NC(=O)/C=C/c2ccc3c(c2)OCO3)s1	99.6
Cc1ccc(C2SCC(C(=O)O)N2C(=O)c2cccc(Cl)c2)cc1 (stereo not given)	93.1
COc1ccc(CNc2ncnc3nc[nH]c23)cc1	99.6
CN(Cc1ccccc1)C(=O)Cn1c(=O)oc2cc(S(=O)(=O)N3CCCCC3)ccc21	103.2
CC1CCCC(C)N1C(=O)COc1ccc(C(=O)O)cc1 (stereo not given)	96.1
O=C(O)CN1CCC(c2ccccc2)CC1	102.7
CC1CCCCC1NC(=O)c1cccc(N2C(=O)C3C4C=CC(C4)C3C2=O)c1 (stereo not given)	101.2
COC(C(=O)NCc1ccc(C)cc1)c1ccccc1 (stereo not given)	100.8
N#CC(CCN1CCNCC1)(c1ccccc1)c1ccccc1	100.5
Cc1csc2c(=O)sc(NC(=O)c3cccs3)nc12	103.2
COC(=O)c1ccc(OCCN2C3=NCCN3c3ccccc32)cc1	96.0
O=C(NC(=S)SCc1ccc(Cl)cc1)c1ccccc1	102.2
CN(C(=O)Cn1c(SCc2ccccc2F)nc2ccncc21)c1ccccc1	113.3
COC(=O)/C=C/c1cccc(Br)c1	105.3
O=C(COC(=O)c1cc(Br)ccc1O)NC1CCCCC1	94.8
CN(C)C(=O)/C(=C/C=C/c1ccccc1)NC(=O)c1ccccc1	99.1
CCOC(=O)C(CC)Sc1ncnc2nc[nH]c12 (stereo not given)	100.5
O=C(NC1CCCCC1)c1ccc2c(c1)ncn2C1CCCCCC1	98.7
O=C(CCn1nc(-c2ccccc2)ccc1=O)NCCc1ccccc1	83.8
CC(=O)Oc1ccccc1C(=O)NC(C)(C)C	99.3
COc1ccc(-n2ncnc2-c2ccc(Cl)cc2Cl)cc1	99.8
CCc1cccc(C)c1NC(=O)c1ccc(C(=O)Nc2c(C)cccc2CC)cc1	100.8
O=C(O)CCSCc1ccccc1F	105.7
Oc1c(O)c(CN2CCCCC2)c2ccccc2c1CN1CCCCC1	112.8
Cc1ccc(NC(=O)c2cc(S(=O)(=O)N3CCCC3)ccc2F)cc1	100.7
COc1ccc(NC(=O)COc2cccc(OCC(C)C)c2)cc1	96.6
O=C(NCc1ccco1)c1cc(C(=O)C2CC2)c[nH]1	93.7
O=C(O)c1[nH]c2ccccc2c1CC(=O)N1CCN(c2ccccc2F)CC1	86.3
COc1ccc(C=Nc2ccc(C)cc2)cc1	99.8
CCOC(=O)C1CCN(C(=O)Cn2ncc3c(C)n(Cc4ccc(Cl)cc4)c(C)c3c2=O)CC1	103.4
N#Cc1ccccc1Oc1ccccc1F	96.2
Cc1cc2c(cc1S(=O)(=O)NC1CCCCC1)OCCN2C	94.7
O=S(=O)(NCCOC12CC3CC(CC(C3)C1)C2)c1cc(Cl)ccc1Cl	91.9
CNC(=O)c1csc(-c2ccccc2)n1	102.9
O=C1CCCC2=C1C(c1ccccc1Cl)N=C(Nc1nc3ccccc3s1)N2 (stereo not given)	106.9
O=C(c1ccc2c(c1)CCO2)N1CC=C(c2ccccc2)CC1	106.0
O=C(CN1CCOc2ccccc21)NCc1ccco1	97.3
CC(C)CNC(=O)C1CCN(C(=O)c2ccc(F)cc2)CC1	100.3
CCC(=O)N1CCc2cc(S(=O)(=O)NC(CC(C)C)C(=O)Nc3cc(C)ccc3C)ccc21 (stereo not given)	96.0
CC(=O)Nc1nc(-c2ccccc2)[n+](-c2ccccc2)s1	99.8
COc1ccc(-c2csc(-c3cccnc3)n2)cc1	103.2

Continued.
SMILES	VACV E9 pol inh
CSc1cc(-c2nccs2)[nH]n1	98.1
COC(=O)c1cn(NC(=O)Cc2ccccc2OC)c(=O)c2ccccc12	112.8
CCOc1cc(C(F)(F)F)c(C(=O)N(C)Cc2ccc(Cl)cc2)cn1	108.5
Cn1ccnc1CC(O)(c1ccccc1)c1ccccc1	100.7
O=C(O)CC1NC(=O)c2ccccc21 (stereo not given)	100.2
Cc1cccc(NC(=O)c2ccc(C)c(S(=O)(=O)N3CCCC3)c2)c1	97.1
CCOC(=O)c1c(C)n(Cc2ccccc2)c2ccc(O)cc12	101.6
NC(=O)C1C2CCC(C2)C1C(=O)c1ccccc1 (stereo not given)	100.7
COC(=O)CSc1nc(-c2ccc(F)cc2)[nH]c1-c1ccc(C)cc1	98.9
Cc1sc(NC(=O)c2ccco2)c(C(c2ccncc2)N2CCOCC2)c1C (stereo not given)	103.4
O=C(COC(=O)Cc1ccsc1)NCc1ccccc1	104.1
COC(=O)c1ccc2c(=O)n(CCC3=CCCCC3)c(SCC(=O)C(C)(C)C)nc2c1	99.4
Cc1cc(NC(=O)C2=COCCO2)no1	99.3
CCN(CC)C(=O)Cn1cnc2sc(C(=O)N3CCN(c4ccc(F)cc4)CC3)c(C)c2c1=O	99.8
Cc1ccc(C(=O)OCC(=O)N2CCCC2)cc1	98.8

Random excerpt: seven entries already listed.
SMILES	VACV E9 pol inh
O=C(COC(=O)Cc1ccsc1)NCc1ccccc1	104.1
COC(=O)c1ccc2c(=O)n(CCC3=CCCCC3)c(SCC(=O)C(C)(C)C)nc2c1	99.4
Cc1cc(NC(=O)C2=COCCO2)no1	99.3
Cc1cccc(NC(=O)c2ccc(C)c(S(=O)(=O)N3CCCC3)c2)c1	97.1
NC(=O)C1C2CCC(C2)C1C(=O)c1ccccc1 (stereo not given)	100.7
CCN(CC)C(=O)Cn1cnc2sc(C(=O)N3CCN(c4ccc(F)cc4)CC3)c(C)c2c1=O	99.8
Cc1ccc(C(=O)OCC(=O)N2CCCC2)cc1	98.8

Later entries:
SMILES	VACV E9 pol inh
CC(C)(C)CC(C)(C)N1CNC(=S)NC1	101.8
CCN1CCSc2ccc(C(=O)NCc3ccccn3)cc21	92.6
CC(C)(C)NC1C=C(c2ccccc2)Sc2nc(-c3ccccc3)cn21 (stereo not given)	101.6
Cc1cc(C)nc(/N=C(/N)N2CCC(C)CC2)n1	87.4
N#Cc1ccc(C(=O)OCC(=O)NCc2ccccc2)cc1	103.6
CCN(C1=NS(=O)(=O)c2ccccc21)N(CC)S(=O)(=O)c1ccc(C)cc1	99.5
Brc1ccc(-n2cnc(-c3ccccc3)c2)cc1	98.2
N#Cc1ccc(C2N(c3ccccc3)CCN2c2ccccc2)cc1	98.9
O=C(c1ccc(F)cc1)N(C(=O)c1ccc(F)cc1)c1ncccn1	90.7
CN(C)c1ccc(-c2nc3c4ccccc4c4ccccc4c3n2C)cc1	99.9
CC(O)CNCc1cccc2ccccc12 (stereo not given)	86.3
O=S(=O)(Nc1nc2ccccc2[nH]1)c1ccc2ccccc2c1	102.5
O=C(Nc1ccccc1)C1CCCCC1	100.1
COc1ccccc1C(=O)OCC(=O)NC1CCCC1	91.8
Cc1nnsc1-c1nc(-c2ccc(Cl)s2)cs1	107.4
Cc1cc2cc(CNC(=S)NCc3ccccc3)ccc2[nH]1	100.0
COCc1cc(C)nc2sc(C(=O)OC)c(-n3cccc3)c12	100.3
Cn1ccnc1SCC(=O)N1CCc2ccccc21	98.3
O=C1OC2(CCCC2)OC(=O)C1=Cc1ccc(OCc2ccccc2)cc1	94.9
O=c1c2ccccc2[nH]c(=S)n1C1CCCC1	101.5
CCOC(=O)C1=C(c2ccccc2)OC(N)=C(C#N)C1CC(C)C (stereo not given)	95.4
COc1ccc(CNc2cc(C)ccn2)cc1	102.1
NC(=O)c1c(NC(=O)C2=COCCO2)sc2c1CCC2	97.7
CC(C)C1=C2CCCCC2NC(=O)N1 (stereo not given)	101.1
COc1cc2c(cc1OC)C(CC#N)=NCC2	92.3
O=C(Nc1cccc(-c2csc(NC(=O)c3ccc(F)cc3)n2)c1)c1ccc(F)cc1	103.6
O=C(Oc1cccnc1)c1cccc(Br)c1	111.5
CCOC(=O)N1CCC(N2C(=O)c3ccccc3C2O)CC1 (stereo not given)	96.4
CN1CCN(C(=O)c2cc3c(ccc4ccccc43)oc2=O)CC1	100.3
CCOCC(=O)NCc1ccc2c(c1)cc(C)n2C	99.3
Cc1ccc(S(=O)(=O)N(c2cccc(Cl)c2)c2nc3ccccc3s2)cc1	95.0
Cc1nc(C(N)=S)cs1	99.6
Cc1ccc(-c2nc(CSCC(=O)NC3CC3)c(C)o2)cc1	95.5
CCCc1nc(-c2ccccn2)nc(OC(=O)N(C)C)c1Cc1c(F)cccc1Cl	98.3
O=C(NCc1nc2ccccc2[nH]1)c1ccccc1	95.9
CCC(=O)c1c(O)cc(O)cc1O	97.2
O=C(CSc1c[nH]c2ccccc12)N1CCN(c2ccccc2)CC1	99.0
NC(=O)c1ccc(NC(=O)COC(=O)C2(c3ccccc3F)CCCC2)cc1	91.1
CCC(NC(=O)Oc1ccc2ccccc2c1)(C(F)(F)F)C(F)(F)F	100.2
CCCCC/C=C\C/C=C\CCCCCCCC(=O)NCCO	99.8
Nc1cccc(C(=O)OC2CSC2)c1	97.4
CC(=O)OCC1=C(C(=O)O)N2C(=O)[C@@H](NC(=O)Cc3cccs3)[C@H]2SC1	91.7
O=C(c1ccc(F)cc1)c1cn(-c2ccc(F)c(Cl)c2)nn1	114.3
O=C(C1CC(c2ccc(F)cc2)=NO1)N1CCCc2ccccc21 (stereo not given)	98.7
N/C(=N\O)c1ccccc1-n1cccc1	89.0
c1ccc(-c2cn3c(nc4ccccc43)s2)cc1	80.5*
Cc1c(C2=NNC(O)(C(F)(F)F)C2)sc2ccccc12 (stereo not given)	99.6
Oc1ccc(C23CC4CC(CC(C4)C2)C3)cc1O	96.4
O=C(CSc1ccccc1)Nc1c(C(=O)C2CC2)oc2ccccc12	100.4
Cc1oc(-c2ccc(Cl)cc2)nc1CN1CCC(C(=O)NC(C)CCc2ccccc2)CC1 (stereo not given)	103.0
Cc1cccc2nc3c(nc12)-c1ccccc1C3=Nc1ccccc1	100.6
CN1C(=O)C(=Cc2ccccc2OCc2ccccc2)C(=O)N(C)C1=S	98.2
O=c1sn(-c2ccc(F)c(Cl)c2)c(=O)n1C1Cc2ccccc2C1	102.4
CCN(CC)C(=O)c1ccc(C(C)(C)C)s1	94.3
O=C(NC1CCCCCC1)C1CCN(C(=O)Cc2ccccc2)CC1	100.2
COc1ccc(NC2SC(=O)N(Cc3ccccc3)C2=O)cc1 (stereo not given)	100.3
O=c1[nH]c(C2=C(O)Cn3c2nc(=O)c2ccccc23)nc2ccccc12	100.2
CCc1nc2ccccc2n1C(=O)c1ccccc1C(=O)O	100.2
O=C(O)c1ccccc1C(=O)N1CCCC1	100.5
CC1(C)CC(C)(O)P(=O)(c2ccccc2)O1 (stereo not given)	100.6

Later entries:
SMILES	VACV E9 pol inh
CSc1nnc(CSc2ncccn2)n1CCc1ccccc1	98.7
O=C(CN1C(=O)C(c2ccccc2)=NC12CCCC2)Nc1ccccc1	101.2
COc1ccc(S(=O)(=O)NCc2csc(-c3ccccc3)n2)cc1OC	101.9
Cc1ccccc1-n1c(SCC(=O)O)nc2sc3c(c2c1=O)CC(C)(C)OC3	99.9
Nc1ccc(/C=C/c2ccccc2)cc1	99.0
Cc1nc2c(C(=O)NCc3ccccc3)c[nH]n2c(=O)c1Cl	83.2
Cc1cccc(-c2nnc(SCC(=O)N3CCCCC3C)o2)c1 (stereo not given)	95.8
C=C1C(=O)O[C@@H]2C3OC3(C)CC/C=C(\C)CC[C@@H]12 (stereo not given in full)	100.2
